NS1 function inh: blocks influenza NS1 protein function | AID 2326 | 270,000 tested, 0.4% active | Potency, µM (titrated, usually from 46.1 µM), inactives show at the top dose activity, positive = more growth | S. cerevisiae slowed by influenza A NS1, growth recovery by OD600; active means well fitted rising curve with a large enough effect; inconclusive means small, poorly fitted or top-dose-only effect; inactive means no such curve, though single readings can be large or run the other way; further: nearly all actives have a fitted effect of over 50% in size
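Read-out: OD600 growth recovery of NS1-expressing budding yeast. Cells grown overnight at 30C in -URA glucose medium, washed, resuspended and diluted 1:100 in 2% galactose assay medium, pH 6.0. Same strain lacking NS1 served as positive control.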
Cruzain Triton: inhibitors of Trypanosoma cruzi cruzain with detergent; Potency, µM, inactives show max response, negative = inhibition, most hits filed as inhibitors; 200,000 tested, 0.43% active; P25779; purified cruzain, Z-FR-AMC fluorescence, 0.01% Triton;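 further: plate controls were neutral wells for no effect and buffer without enzyme for full effect; nearly all actives have a fitted effect of over 40% in size; top concentration of the series not given in the record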
Target sequence (P25779 123-467 limits assumed): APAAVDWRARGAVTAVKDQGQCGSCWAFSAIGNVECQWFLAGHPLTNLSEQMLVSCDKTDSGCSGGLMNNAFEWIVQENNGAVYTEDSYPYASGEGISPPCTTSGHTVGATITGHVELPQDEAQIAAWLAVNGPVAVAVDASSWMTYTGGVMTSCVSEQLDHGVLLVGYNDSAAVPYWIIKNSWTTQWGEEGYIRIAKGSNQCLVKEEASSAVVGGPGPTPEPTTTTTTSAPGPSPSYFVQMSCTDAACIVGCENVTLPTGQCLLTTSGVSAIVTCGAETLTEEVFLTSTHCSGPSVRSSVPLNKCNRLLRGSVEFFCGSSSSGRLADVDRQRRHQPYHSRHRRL
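Detergent-containing run (0.01% Triton X-100) in acetate buffer pH 5.5 with 5 mM DTT: enzyme at 1.5 nM final, 15 min compound preincubation at room temperature, then 2 uM Z-FR-AMC substrate. Activity taken as 60 s fluorescence increase at 360/450 nm.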
2A StopGo: lowers the luciferase signal of an FMDV 2A StopGo reporter; human cells with a luciferase reporter of 2A StopGo recoding; control for the full effect not named in the record; Potency, µM (highest dose often 57.9 µM), without a hit: top-dose signal change, negative = less light; 410,000 tested, 1.2% active; active = well fitted falling curve with a large enough effect; inconclusive = small, poorly fitted or top-dose-only effect; inactive = no such curve, though single readings can be large or run the other way; tested in HEK293T cells; further: on the % scale 0 is the no-effect control and ±100 the full control effect; nearly all actives have a fitted effect of over 45% in size; luciferase light after 4 h
RE007 growth inh: less growth of the S. pombe RE007 Vpr strain | AID 651644 | 360,000 tested, 0.21% active | S. pombe RE007 Vpr strain, BacTiter-Glo ATP luminescence, 24 h; control for the full effect not named in the record | Potency, µM (series often up to 92.2 µM), for inactives: top-dose activity change, negative = less growth; active = well fitted falling curve with a large enough effect; inconclusive = small, poorly fitted or top-dose-only effect; inactive = no such curve, though single readings can be large or run the other way;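 further: on the % scale 0 is the no-effect control and ±100 the full control effect; nearly all actives have a fitted effect of over 50% in size; the assay follows cell death caused by Vpr and the record does not say whether a fall means rescue or toxicity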
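Fission yeast strain RE007, carrying one chromosomally integrated HIV-1 vpr copy, was seeded at OD 0.01 in PMG+AL medium with 23 nL pinned compound. After 24 h at 30 °C and 99% humidity, viability was read by BacTiter-Glo luminescence.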
Cruzain inh noDet: inhibitors of Trypanosoma cruzi cruzain without detergent. 200,000 tested, 2.3% active. P25779. purified cruzain, Z-FR-AMC fluorescence, no detergent. Potency, µM, for inactives: max response, negative = inhibition, actives largely listed as inhibitors;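 further: plate controls were enzyme without inhibitor for no effect and buffer without enzyme for full effect; nearly all actives have a fitted effect of over 40% in size; top concentration of the series not given in the record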
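Purified cruzain at 1.5 nM, pre-incubated 15 min with compound at room temperature in 100 mM sodium acetate pH 5.5, 5 mM DTT, 0.00005% Triton X-100. Reaction started with 2 uM Z-FR-AMC; AMC fluorescence increase over 60 s gives rate.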
SARS PLpro yeast: inhibitors of SARS-CoV papain-like protease in yeast. S. cerevisiae expressing SARS-CoV PLpro, growth rescue; control for the full effect not named in the record. Potency, µM (highest dose often 32.9 µM), inactives show at the highest dose activity, positive = growth rescue. 330,000 tested, 0.19% active. AID 485353; active means well fitted rising curve with a large enough effect; inconclusive means small, poorly fitted or top-dose-only effect; inactive means no such curve, though single readings can be large or run the other way; further: 0% is about no effect; nearly all actives have a fitted effect of over 55% in size; growth read by luminescence after 48 h
LASV entry inh: inhibitors of Lassa virus binding or cell entry. Lassa virus pseudotype entry inhibition, cell reporter; control for the full effect not named in the record. Potency, µM (highest dose often 37.9 µM), without a hit: at the highest dose activity change, negative = inhibition, most hits filed as inhibitors. 300,000 tested, 1.2% active; active means well fitted inhibition curve with a large enough effect; inconclusive means small, poorly fitted or top-dose-only effect, or effect the other way; inactive means flat fitted curve, though single readings scatter; tested in HEK293 cells; further: on the % scale 0 is the no-effect control and ±100 the full control effect; nearly all actives have a fitted effect of over 50% in size; luciferase read-out
Marburg entry inh: inhibitors of Marburg virus binding or cell entry | Marburg virus pseudotyped entry inhibition, cell reporter; control for the full effect not named in the record; about a third of the inactives were read at about 46 µM | Potency, µM (top dose mostly 37.8 µM), for inactives: at the highest dose activity change, negative = inhibition, actives largely listed as inhibitors | 300,000 tested, 1.8% active | AID 540276; active = well fitted inhibition curve with a large enough effect; inconclusive = small, poorly fitted or top-dose-only effect, or effect the other way; inactive = flat fitted curve, though single readings scatter; tested in HEK293 cells; about a fifth of its hits are not listed in these tables; further: on the % scale 0 is the no-effect control and ±100 the full control effect; luciferase read-out
* = called active by the depositor; ? = inconclusive; . = no result given; & = joins results of further samples; [ ] = dose if it differs, or a comment. Unless noted, the call rests on the fitted dose curve; in most records, active means well fitted curve in the direction sought with a large enough effect; inconclusive means small, poorly fitted or top-dose-only effect, or another doubt; inactive means no such curve, though single readings can be large; an effect the other way counts as inactive or inconclusive. Potency means the concentration at half of the fitted maximal effect.

SMILES	NS1 function inh	Cruzain Triton	2A StopGo	RE007 growth inh	Cruzain inh noDet	SARS PLpro yeast	LASV entry inh	Marburg entry inh
CCOc1ccc(-c2nnc(SCC(=O)N3CCN(c4ccccc4)CC3)o2)cc1	2%	0.5%	-18%	-3%	?	-1%	1%	-8%&-8%
CCn1c(SCC(=O)N(C)Cc2ccc(OC)c(F)c2)nc2cc(S(N)(=O)=O)ccc21	8%	.	-25%	-17%	.	2%	-3%	-6%[46.1 µM]
CCC(=O)N1CCc2cc(S(=O)(=O)NC(C(=O)Nc3cccc(C)n3)C(C)C)ccc21 (stereo not drawn)	1%	7.4%	14%	2%	-1%	3%	4%	-5%
CC(C)C(=O)N/N=C/c1ccc(OCc2ccccc2)cc1	-65%	-3.1%	-23%	?	-14%	-3%	-19%	-9%
COc1ccccc1COn1c(=O)c(-c2ccco2)[n+]([O-])c2ccccc21	9%	.	-20%	0%	.	-2%	.	.
CN(O)C(=S)c1ccccc1	.	.	?	13µM*	.	.	6.3µM*	?
Clc1ccc(Nc2ncn[nH]2)cc1	-21%	0.4%	23%	11%[3.69 µM]	-3%	-10%	2%	18%
COc1ccc(NC(=O)N2CCCC(CNS(=O)(=O)c3cccs3)C2)c(C)c1 (stereo not drawn)	-1%	.	-2%	-18%	.	0%	-2%	2%[46.1 µM]
CC(=O)C1C(C)CC2C3CCC4CC(=O)CCC4(C)C3CCC21C (stereo not drawn)	.	.	-21%	-3%	.	.	3%[46.1 µM]	1%[46.1 µM]
CCc1c(C)c2cc(Cl)c(O)c(CN3CCCC3)c2oc1=O	2%	.	14%	15%	.	3%	-3%[46.1 µM]	10%[46.1 µM]
Cc1cc(C(=O)Cn2nnc3ccccc3c2=O)c(C)n1-c1c(C)n(C)n(-c2ccccc2)c1=O	16%	-3.3%	.	-14%	22%	-2%	-11%	8%
Cc1ccc(N=Cc2nc(-c3ccc(C)cc3)oc2O)cc1	.	.	-8%	18%	.	8%	3%	7%
CC(C)(C)C1CCc2onc(C(=O)Nc3sc4c(c3C#N)CCCC4)c2C1 (stereo not drawn)	.	-9.5%	?	.	-5%	.	0%[46.1 µM]	-11%[46.1 µM]
COc1ccc(NC(=O)CC2C(=O)N(c3cccc(OC)c3)C(=O)N2CCC(C)C)cc1 (stereo not drawn)	-6%	-0.9%	10%	-8%	-1%	-11%	-24%	-15%
Cc1cccc2nc3c(nc12)-c1ccccc1C3=O	-51%	.	48%[activator]	-20%	.	-1%	13%	-1%
COc1cc(NC(=O)CC(C)n2ccnc2)cc(OC)c1 (stereo not drawn)	2%	.	-5%	-14%	.	3%	3%[46.1 µM]	25%[46.1 µM]
O=C(c1ccccc1/S(=N/S(=O)(=O)c1ccccc1)N1CCOCC1)N1CCOCC1 (stereo not drawn)	-55%	4.0%	9%	28%	-12%	0%	17%	1%
CCOc1cccc(NCc2cc3c(C(C)(C)C)nn(-c4ccccc4)c3[nH]c2=O)c1	10%	-5.8%	.	3%	-12%	-6%	3%	?
O=C(O)CCCC(=O)N(Cc1ccccc1)Cc1ccccc1	13%	4.4%	-10%	10%	-6%	8%	22%	?
C/C(=N\NC(=O)c1cccc(Br)c1)c1cccc(NC(=O)c2ccc(C)o2)c1	-6%	-4.2%	3%	?	1%	-9%	-2%	10%[46.1 µM]
Cc1cccc2c1N(Cc1ccccc1OCCC(C)C)C(=O)C2=O	.	-0.3%	0%	.	3%	.	?	?
COc1cc(C(CCN2CCCCC2)c2c(OC)cc(OC)c3c(C)cc(=O)oc23)cc(OC)c1OC (stereo not drawn)	-4%	.	5%	-23%	.	-3%	.	.
CC(C)Oc1ccc(C(=O)N2CCCc3ccccc32)cc1	-124%	-4.9%	4%	0%	-7%	-12%	-12%	-4%
CN(CC(=O)Nc1cccc(F)c1)C(=O)c1cc([N+](=O)[O-])ccc1N1CCOCC1	.	.	-9%	-9%	.	-2%	4%	6%
CCOC(=O)N1CCc2c(sc3c2c(=O)n(Cc2ccccc2)c(=O)n3Cc2ccccc2Cl)C1	.	-0.2%	?	.	5%	.	3%[46.1 µM]	4%[46.1 µM]
O=c1[nH]c(=S)[nH]nc1Cc1ccccc1	-2%	3.3%	4%	-2%	-1%	8%	-4%	13%
CCN(Cc1nc(-c2cccc(C)c2)no1)C(=O)c1ccc2c(c1)OCO2	-29%	.	?	60%	.	-1%	7%	26%[46.1 µM]
Oc1ccc(Br)cc1CNc1ccccn1	-5%	.	14%	-18%	.	-2%	.	.
Cc1cccc2nc(CSc3nc4ccccc4o3)cn12	-24%	-6.1%	49%[activator]	-15%	-1%	-25%	19%	?
O=C(Nc1ncc([N+](=O)[O-])s1)c1ccccc1Br	-118%	.	17%	?	.	-21%	.	.
NC(=O)c1ccccc1NC(=O)c1ccccc1F	-19%	-0.8%	44%[activator]	1%	-3%	0%	-4%	0%
COCCn1c(CCc2ccccc2)n[nH]c1=S	8%	.	-17%	11%	.	0%	-17%	11%
CN(C)C1C(=O)c2ccccc2C1=O	14%	-6.0%	-10%	-3%	-8%	9%	7%	17%
COc1ccc(OC)c(S(=O)(=O)NC2CC(=O)N(c3cccc(F)c3)C2)c1 (stereo not drawn)	.	.	10%	8%	.	1%	-16%	2%[46.1 µM]
CCN(C(=O)COC(=O)CNC(=O)C12CC3CC(CC(C3)C1)C2)C1CCS(=O)(=O)C1 (stereo not drawn)	?	10%	0%	16%	4%	6%	5%	15%
C=CCNCCCOc1ccc(Cl)cc1C(C)(C)C	-5%	.	-12%	19%	.	1%	-9%	?
Cc1c(NS(=O)(=O)c2cccc(C(=O)NCc3ccccc3Cl)c2)c(=O)n(-c2ccccc2)n1C	.	.	-5%	-9%	.	8%	-17%	12%
CCC(=O)c1ccc(OCC(=O)N2CCN(CC(=O)Nc3ccccc3C(F)(F)F)CC2)cc1	.	.	-8%	46%	.	0%	2%[46.1 µM]	?
CCC(c1nnnn1C1CCCC1)N1CCC(C(N)=O)CC1 (stereo not drawn)	.	.	-3%	-16%	.	5%	?	24%[46.1 µM]
CNc1ncc(-c2nnnn2-c2ccccc2)c(-c2ccccc2)n1	-1%	.	-6%	4%	.	-1%	.	.
COc1cc(C(=O)Nc2cccc(-n3cnnn3)c2)cc(Cl)c1OC	7%	.	9%	-13%	.	-2%	.	.
O=C(CNC(=S)N(CCCN1CCOCC1)Cc1cccs1)NCc1ccc(Cl)cc1	-8%	.	-3%	-4%	.	-3%	.	.
NC(=O)C1=C[C@@H](c2coc3ccccc3c2=O)C[C@@H](OCCCCO)O1	1%	.	-9%	13%	.	0%	.	.
Cc1cccc(CSC2=CS(=O)(=O)c3ccccc3N2)c1	-13%	-4.0%	-14%	0%	-3%	5%	-2%	?
CCOCCc1nnc(NC(=O)Cc2ccc(Br)cc2)s1	-3%	1.0%	-20%	8%	-29%	3%	-10%	-6%
CCOC(=O)CNC(=O)CSc1nc(-c2ccc(OC)cc2)ns1	.	.	13%	-18%	.	-1%	1%	-24%
O=c1c2sc3ccccc3c2n(Cc2cccc(Cl)c2)c(=O)n1Cc1ccco1	.	-11%	-11%	.	?	.	-3%[46.1 µM]	0%[46.1 µM]
O=C(O)c1c[nH]c(=O)c2ccccc12	2%	.	11%	27%	.	0%	5%	17%[46.1 µM]
O=C(C1CCC(Cn2c(=O)c3sccc3n(Cc3cccc(F)c3)c2=O)CC1)N1CCCCC1 (stereo not drawn)	.	-5.7%	?	.	10%	.	-11%[46.1 µM]	.
O=C(c1ccco1)N1CCN(c2nc(C(F)(F)F)nc3c2nnn3Cc2ccccc2)CC1	?	-12%	14µM*	-13%	?	-24%	?	?
COc1ccc(N2CCN(CC(=O)c3ccc(Cl)cc3)CC2)cc1	-1%	.	20%	1%	.	0%	.	.
COc1ccccc1C(=O)NNC(=O)C(=O)N1CCCCC1	-3%	.	-1%	-1%	.	0%	14%[46.1 µM]	18%[46.1 µM]
CC1(C)CC(=O)N(CC(=O)O)c2ccccc2S1	0%	0.5%	12%	9%	-8%	0%	13%	4%
Cc1cc2nc(N3CCN(C(=O)c4ccco4)CC3)sc2cc1C	.	.	8%	4%	.	1%	?	?
Cc1ccc(N2CCN(C(=S)c3ccc(-c4ccccc4[N+](=O)[O-])o3)CC2)cc1	9%	.	-10%	1%	.	-1%	?	8%
CCOC(=O)c1ccccc1NC(=O)c1cc2c(s1)-c1ccccc1SC2	.	-5.8%	-21%	.	7.9µM*	.	7%[46.1 µM]	?
Cc1cc(NC(=O)c2cccnc2)ccc1Br	-36%	.	46%[activator]	-22%	.	-8%	.	.
Cc1ccc(NC(=O)c2oc3ccc(Br)cc3c2C)cc1S(=O)(=O)N1CCOCC1	.	.	-31%	11%	.	.	9%	2%
CCOCCCN1C(=O)CN(C2CCCCCC2)C(=O)C1c1ccc(OC(C)C)c(OC)c1 (stereo not drawn)	.	-0.1%	-10%	.	?	.	7%[46.1 µM]	.
O=C(CCC(=O)N1CCN(S(=O)(=O)c2ccccc2Cl)CC1)c1ccccc1	.	.	-6%	5%	.	2%	19%	0%
Further compounds:
SMILES	NS1 function inh	Cruzain Triton	2A StopGo	RE007 growth inh	Cruzain inh noDet	SARS PLpro yeast	LASV entry inh	Marburg entry inh
Cc1ccc(NC(=O)Nc2cc(C(F)(F)F)c[nH]c2=O)cc1	-1%	.	4%	-5%	.	7%	-25%[46.1 µM]	?
CCN(CC)S(=O)(=O)c1cccc(C(=O)Nc2sc3c(c2C(N)=O)CCCC3)c1	0%	-4.6%	24%	-1%	6%	1%	-8%	0%
O=C(Nc1ccccc1)C1=C(O)CC(c2ccc(Cl)cc2)N2CCN=C12 (stereo not drawn)	13%	-4.2%	-9%	0%	?	-30%	-12%	?
COc1ccc(-c2noc(CN(C)S(=O)(=O)c3c(C)cc(C)cc3C)n2)cc1OC	.	-4.2%	0%	.	?	.	-16%[46.1 µM]	-7%[46.1 µM]
Cc1ccc(NC(=O)C2CCCN2S(=O)(=O)c2cccc3cccnc23)c(C)c1 (stereo not drawn)	-55%	-2.9%	-1%&6%	-18%	-5%	-3%	.	1%&1%[46.1 µM]
CCN1CCc2nc3sc(C(=O)N4CCc5ccccc5C4)c(N)c3cc2C1	10%	.	-7%	-7%	.	-1%	1%[46.1 µM]	?

From PubChem BioAssay
